Compound activity (PubChem BioAssay)
VDR inh: blocks the human vitamin D receptor. P11473. hit rate 0.93% among 400,000. VDR-SRC2-3 peptide fluorescence polarization, 2 h. AID 504847. Potency, µM, for the others: max response, negative = inhibition, hits mostly inhibitors; active = well fitted inhibition curve with a large enough effect; inconclusive = small, poorly fitted or top-dose-only effect, or another doubt; inactive = no such curve, though single readings can be large or run the other way; note: series mostly up to about 120 µM
Target sequence (P11473 whole entry, looked up): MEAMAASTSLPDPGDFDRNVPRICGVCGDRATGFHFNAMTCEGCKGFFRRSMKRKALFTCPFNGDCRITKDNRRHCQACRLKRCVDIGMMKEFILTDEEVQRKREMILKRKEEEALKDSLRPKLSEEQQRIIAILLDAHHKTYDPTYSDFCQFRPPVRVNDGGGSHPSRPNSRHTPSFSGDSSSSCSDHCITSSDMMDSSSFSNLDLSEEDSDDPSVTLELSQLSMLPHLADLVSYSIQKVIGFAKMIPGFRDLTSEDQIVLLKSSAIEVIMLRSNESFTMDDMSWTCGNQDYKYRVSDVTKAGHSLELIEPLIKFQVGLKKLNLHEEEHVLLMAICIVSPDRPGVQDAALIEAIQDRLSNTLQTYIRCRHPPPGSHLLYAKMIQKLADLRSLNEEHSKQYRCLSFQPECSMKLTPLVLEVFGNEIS
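Measured by FP: displacement of SRC2-3 coactivator peptide from VDR by library compounds, following a two-hour ambient incubation.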
The depositor's hits bear a star; u = inconclusive. % is set by controls: 0 for no effect and ±100 for the full control effect; potency is the fitted concentration of half-maximal effect. Not all compounds are listed, so the mix of outcomes need not match the whole.

SMILES	VDR inh
O=C(Nc1ccccc1N1CCCC1)c1cc(=O)[nH]c2ccccc12	-11.7%
CCNC(=O)COc1cccc(C(=O)NCc2ccccc2)c1	-23.1%
Cc1ccc(C(C(=O)NC2CCCC2)N(C(=O)Cc2cccs2)c2ccc3c(c2)OCCO3)cc1 (centres undefined)	-2.2%
CCCS(=O)(=O)NCCc1sc2nc(-c3ccc(Cl)cc3)nn2c1C	5.1%
COc1ccc(-n2c(SCCC(=O)O)nnc2-c2ccncc2)cc1	15.0%
COc1cccc(C(=O)Nc2cnn(C(C)C)c2)c1	-12.9%
CSc1nn2c(C(F)(F)F)cc(C(F)(F)F)nc2c1C(=O)O	13.7%
O=C(CSc1ccccc1)Nc1cc(Cl)ccc1Oc1ccccc1	5.3%
Cn1c(CCNC(=O)C2CCCCC2)nc2cc(NC(=O)c3cccs3)ccc21	-15.5%
CSc1ccc(/C=C/C(=O)OCC(=O)NC2CCS(=O)(=O)C2)cc1 (centres undefined)	18.2%
CC(C)(C)OC(=O)NCCCCCNC(=O)c1nc[nH]c1C(=O)N1CCN(C(=O)OC(C)(C)C)CC1	-5.3%
CCN1CCN(CCCNC(=O)c2cnn(-c3ccccc3Cl)c2C2CCN(C(=O)OC(C)(C)C)CC2)CC1	3.9%
Cc1ccc(Nc2nc(-c3ccc(F)cc3)cs2)nc1	-6.7%
Cc1ccc2nc(C(O)C(O)c3nc4ccc(C)cc4[nH]3)[nH]c2c1 (centres undefined)	-5.8%
O=[N+]([O-])c1c(-c2cn[nH]c2)n[nH]c1-c1cn[nH]c1	0.9%
Cc1ccc2c(c1)Oc1ccc(NC(=O)CCl)cc1C(=O)N2	-1.7%
COc1ccc(CCN2C(=O)CC(NNC(=O)c3ccccc3Br)C2=O)cc1 (centres undefined)	-18.9%
CCOc1cc(/C=N/NC(=O)N/N=C/c2ccc(O)c(OCC)c2)ccc1O	-0.3%
CCOC(=O)CN(C(=O)CSc1nnc(Cc2ccccc2)n1-c1ccc(C)cc1)c1ccccc1	10.3%
CN(CC(=O)Nc1cccc(Cl)c1)S(=O)(=O)c1ccc2[nH]c3c(c2c1)CCCC3	16.7%
CCn1c2ccccc2c2nc3cc(S(=O)(=O)N4CCOCC4)ccc3nc21	28.2µM*
O=C(O)CC(NC(=O)C12CC3CC(CC(C3)C1)C2)c1cccc([N+](=O)[O-])c1 (centres undefined)	10.5%
CC1Cc2ccccc2N1C(=O)Cn1c(=O)oc2cc(S(=O)(=O)NC3CCCC3)ccc21 (centres undefined)	3.9%
O=S(=O)(/N=C(/Nc1cccnc1Cl)c1ccccc1)c1ccccc1	5.0%
CCOc1cc(S(=O)(=O)N2CCN(c3ccc(F)cc3)CC2)c(OCC)cc1-n1cnnn1	-8.7%
Cc1[nH]c2ccccc2c1C(=O)C(=O)Nc1ccc2c(c1)OCCO2	u
O=C1c2ccccc2N2C(=O)c3ccccc3[C@H]2N1c1ccccc1	20.6%
CSc1cccc(NC(=O)C2CCN(S(=O)(=O)c3cnc[nH]3)CC2)c1	-6.4%
O=C(Nc1cccc(-c2nc3ncccc3o2)c1)c1cc2ccccc2o1	-2.9%
O=C(CN(C(=O)c1csnn1)c1ccccc1F)NC1CCCCC1	7.1%
S=C1NC2(CCCCC2)Cc2ccccc21	-10.0%
Cc1cc(C)n(CCN(C)C(=O)C2CCC(=O)N(CCc3cccc(F)c3)C2)n1 (centres undefined)	-6.4%
CCOC(=O)c1c(NC(=O)C(C)Oc2ccc(Cl)c(C)c2)sc2c1CCCC2 (centres undefined)	79.4µM*
Cc1cccc(NC(=O)CSc2nnc(CNC(=O)c3ccco3)n2C)c1	1.0%
CC(C)CCN1CCN(Cc2cccn2-c2ccc(Cl)cn2)CC1CCO (centres undefined)	-13.2%
C/C(CC(=O)Nc1ccc(N(C)C)cc1)=N\NC(=O)c1ccc(Cl)cc1Cl	-4.0%
COc1ccc(C2=NOC(C(=O)Nc3ccc4c(c3)OCO4)C2)cc1 (centres undefined)	-11.2%
Cc1cccc(N2CCN(c3ncnc4onc(C)c34)CC2)c1C	12.7%
O=C(CN1C(=O)c2ccccc2Sc2ccc(C(=O)N3CCOCC3)cc21)Nc1ccc(Cl)cc1F	9.4%
O=C(O)C1=C[C@H](c2ccc(C(F)(F)F)cc2)C[C@H](OCc2ccc(CO)cc2)O1	-22.1%
CN(CC(=O)NC1CCCCCCC1)S(=O)(=O)c1cccc2cccnc12	-9.9%
CC(C)CC1=NN(C(=O)c2ccncc2)C(O)(C(F)(F)F)C1 (centres undefined)	u
CC(C)N1CCN(Cc2ccc(-c3ccccc3)cc2)CC1CCO (centres undefined)	2.7%
COc1ccc(N(C=O)C(C(=O)Nc2c(C)cccc2C)c2ccccc2)cc1 (centres undefined)	-19.9%
Cc1nc2sccn2c(=O)c1S(=O)(=O)N1CCN(c2cccc(C(F)(F)F)c2)CC1	-12.3%
O=S(=O)(NCCCN1CCOCC1)c1ccc(F)c(Cl)c1	1.7%
CCC(C(=O)Nc1cc(OC)ccc1OC)n1c(C)c2cnn(-c3ccccc3)c(=O)c2c1C (centres undefined)	12.3%
CCn1c(SCC(=O)Nc2ccccc2)nc2c1c(=O)n(C)c(=O)n2C	1.2%
CCc1cccc(OCC(=O)Nc2ccc(S(=O)(=O)Nc3onc(C)c3C)cc2)c1	-8.8%
COc1ccc(C(=O)COC(=O)c2ccc(-n3cnnn3)cc2)c(OC)c1	16.3%
Cn1ccc2cc(S(=O)(=O)N3CCCC(C(=O)NCc4ccccc4)C3)ccc21 (centres undefined)	-1.4%
CCN(CC)CC(O)COc1ccccc1C(=O)CCc1ccccc1 (centres undefined)	6.2%
COc1ccccc1NC(=O)CN1CCN(CC(=O)Nc2cc(NC(C)=O)ccc2OC)CC1	15.6%
COc1ccc(C)cc1-n1nnnc1SCC(=O)c1cc(C)n(Cc2ccco2)c1C	10.5%
CC(C)(C)Nc1nc(N2CCCC2)nc(N2CCCC2)n1	-15.0%
CC(=O)Nc1nonc1-c1nc2ccccc2n1Cc1ccccc1	-9.9%
COc1cc(Cc2nccc3cc(OC)c(OC)cc23)c(NC(C)=O)cc1OC	-6.3%
COc1cc(CN2CCC(Cc3ccccc3)CC2)cc([N+](=O)[O-])c1O	0.7%
Cc1ccc(-c2n[nH]c(=S)n2/N=C/c2ccc(C)o2)cc1	-14.5%
Cc1cccn2c(NCc3ccc4c(c3)OCO4)c(-c3ccc(O)cc3)nc12	10.5%

Marked active in VDR inh, of those listed so far:
SMILES	VDR inh
CCn1c2ccccc2c2nc3cc(S(=O)(=O)N4CCOCC4)ccc3nc21	28.2µM*
CCOC(=O)c1c(NC(=O)C(C)Oc2ccc(Cl)c(C)c2)sc2c1CCCC2 (centres undefined)	79.4µM*

The list goes on.
SMILES	VDR inh
CCOc1ccc(CNC(=O)C2CCN(S(=O)(=O)CC)CC2)cc1OC	-6.7%
NNC(=O)CSc1nc(-c2ccccc2)cn1-c1ccccc1	-17.1%
CCN(CC)C(=O)CSc1nnc(-c2ccco2)n1Cc1ccco1	4.9%
Cc1ccc(-c2nnn(CC(=O)N(CC(=O)NC3CCCC3)c3ccccc3F)n2)o1	-1.0%
O=C(NC(Cc1ccccc1)C(=O)O)/C(=C\c1ccc(Br)cc1)NC(=O)c1ccc(Br)o1 (centres undefined)	-22.5%
CC1CCC(C#N)(N(C)C(=O)CSc2nnc(C3CC3)n2C2CC2)CC1 (centres undefined)	-13.4%
Cc1[nH]n(-c2ccccc2)c(=O)c1/C=N/N(c1ccccc1)c1ccccc1	u
CCC(=O)Nc1c(-c2ccc3ccccc3c2)nc2ccccn12	-9.7%
CCC(C)(C)c1ccc(OCCCC[n+]2ccc(C)cc2)c(C(C)(C)CC)c1	-8.6%
C/C(Cn1cnc([N+](=O)[O-])n1)=N\NC(=O)c1cccnc1	-5.4%
CCOc1ccc(CCNC(=O)c2ccc3c(c2)c(C)c(C)n3C)cc1	22.7%
CCOc1ccccc1C(=O)NCC(=O)N(C)Cc1cccnc1	-9.6%
CCCNC(=O)C1CCN(S(=O)(=O)c2ccc(-c3nn[nH]n3)cc2)CC1	-6.5%
CC(c1ccon1)N(C)C(=O)CCc1nnc(C2(c3ccc(Cl)cc3)CCC2)o1 (centres undefined)	-3.7%
Cc1cccc(OCC(=O)Nc2ccc(N3CCCC3)cc2)c1C	13.3%
O=[N+]([O-])c1ccc(CNCc2cc(Cl)ccc2O)cc1	3.4%
Cc1ccccc1-n1c(SCC(=O)Nc2ccc(Cl)cc2Cl)nc(O)cc1=O	-7.2%
CC(C(=O)NC1CC1)c1ncc(C(F)(F)F)cc1Cl (centres undefined)	-16.7%
NC(=O)c1ccsc1NC(=O)COC(=O)[C@@H]1CCCN1C(=O)c1cccs1	-4.5%
O=S(=O)(/N=C(/Nc1cccc2ccccc12)c1ccccc1)c1ccc(Br)cc1	-7.8%
COc1ccccc1N(C(=O)CNC(=O)c1ccco1)C(C(=O)NC1CCCCC1)c1ccncc1 (centres undefined)	-6.4%
CCOC(=O)CC(NS(=O)(=O)c1ccc(OC)c(OC)c1)c1cccc([N+](=O)[O-])c1 (centres undefined)	2.7%
CC(C)c1ccc(C(=O)NCCCN2CCN(CCCNC(=O)c3ccc(C(C)C)cc3)CC2)cc1	-29.1%
O=C1CCN=C(Nc2ccc(F)cc2)N1Cc1ccccc1	3.4%
CC(=O)c1cnn(-c2ccc(Cl)c(Cl)c2Cl)c1C	-1.2%
CCCN(CCC)CCNC(=O)C1CC(=O)N(c2ccc(OC)cc2)C1c1ccc(OC)cc1 (centres undefined)	2.7%
Brc1ccc(-c2nnc3n2-c2ccccc2CC3)cc1	7.2%
CCCCCn1c(=O)c(C(=O)c2ccccc2)nc2ccccc21	u
CC(C)(C)[C@H]1CCC(=O)N([C@H](CN=[N+]=[N-])Cc2ccccc2)CC1	-17.7%
Cc1ccc2c(c1)c(-c1ccccc1)nc1nncn12	-1.4%
O=C(C1CCC(=O)N(C2CCCC2)C1)N1CCN(Cc2cccc(Cl)c2)CC1 (centres undefined)	5.7%
COC(=O)c1ccsc1NC(=O)CSc1nnnn1Cc1ccccc1	7.9%
COc1cccc(NC(=O)CN(C)C(C)C(=O)Nc2ccc(S(=O)(=O)N3CCCC3)cc2)c1 (centres undefined)	-15.6%
COc1cc(C#N)ccc1OCC(=O)NCCC1=CCCCC1	-7.4%
N#Cc1ccccc1NC(=O)c1cccc(COc2ccc(Cl)cc2Cl)c1	-3.2%
CC(=O)Nc1ccc(N2C(=O)CSC2c2ccc(F)cc2)cc1 (centres undefined)	15.0%
COc1ccc(-c2nn3c(-c4ccccc4)nnc3s2)cc1OC	-17.5%
O=c1cc(O)c(-c2ccc(Cl)c(Cl)c2)c(Cl)[nH]1	4.3%
CCn1c(-c2ccsc2)nc2c1c(=O)[nH]c(=O)n2Cc1ccccc1	-1.0%
Cc1ccc(S(=O)(=O)N(C)C)cc1NC(=O)COC(=O)CNC(=O)c1cccs1	-0.9%
CCOC(=O)c1ccc(NC(=O)CSc2nc(N)c(NC(=O)c3ccc(Br)o3)c(=O)[nH]2)cc1	-14.4%
Cn1c(=O)cc(OCC(=O)NCc2cccnc2)c2ccccc21	-0.7%
CC(=O)C[C@H]1c2cc(C(F)(F)F)ccc2S(=O)(=O)N1C1CCCCC1	-26.2%
O=c1c2ccc(Cl)cc2nc(-c2cccc(C(F)(F)F)c2)n1O	-0.5%
CCOC(=O)[C@@H]1[C@H]2COc3cc(OC)ccc3[C@H]2N2C(=O)N(c3ccccc3)C(=O)[C@]12C	-8.2%

Entries above containing a thiophene ring, fused or not, in the order listed:
SMILES	VDR inh
Cc1ccc(C(C(=O)NC2CCCC2)N(C(=O)Cc2cccs2)c2ccc3c(c2)OCCO3)cc1 (centres undefined)	-2.2%
Cn1c(CCNC(=O)C2CCCCC2)nc2cc(NC(=O)c3cccs3)ccc21	-15.5%
CCOC(=O)c1c(NC(=O)C(C)Oc2ccc(Cl)c(C)c2)sc2c1CCCC2 (centres undefined)	79.4µM*
NC(=O)c1ccsc1NC(=O)COC(=O)[C@@H]1CCCN1C(=O)c1cccs1	-4.5%
COC(=O)c1ccsc1NC(=O)CSc1nnnn1Cc1ccccc1	7.9%
CCn1c(-c2ccsc2)nc2c1c(=O)[nH]c(=O)n2Cc1ccccc1	-1.0%
Cc1ccc(S(=O)(=O)N(C)C)cc1NC(=O)COC(=O)CNC(=O)c1cccs1	-0.9%

Going on with the list.
SMILES	VDR inh
CCOc1ccc(-c2noc(CCCC(N)=O)n2)cc1OC	0.2%
Cc1cc(O)c(C(c2ccc(F)cc2)N2CCCCC2)c(=O)n1Cc1ccco1 (centres undefined)	1.4%
CCCC(C)(C)C(=O)Nc1ccc(Cl)cc1	-0.6%
O=C(CSc1nnc(-c2ccccc2)o1)Oc1ccc(Br)cc1	20.1%
O=C(CCSCCc1ccccn1)Nc1ccc(Br)cn1	3.8%
O=S(=O)(c1ccccc1)c1nc(Nc2cccc(O)c2)sc1Cl	13.6%
N#Cc1c(N(CCO)CCO)nc(N)c2c(N)nc3c(c12)CC(=O)N3Cc1cccs1	-11.6%
COc1cc(/C=N/NC(=O)c2cccc(NC(=O)c3ccccc3Cl)c2)ccc1O	1.7%
NC(=O)c1ccc(NC(=O)COC(=O)CCCc2c[nH]c3ccccc23)cc1	-4.0%
O=C(CCC(=O)OCC(=O)c1ccc(F)cc1)NC1CCCCC1	-9.2%
CCc1ccc(C(=O)CC2(O)C(=O)N(CCc3ccccc3)c3ccc(Cl)cc32)cc1 (centres undefined)	-11.7%
CCOC(=O)C(=O)Nc1ccccc1C(=O)NCc1ccccc1	-2.9%
CC(C)CNC(=S)N1CCN(c2nc(-c3ccc(Cl)cc3)cs2)CC1	22.7%
Cc1cc(C)c2sc(NNC(=O)C3COc4ccccc4O3)nc2c1 (centres undefined)	2.5%
COc1ccc(OC)c(NC(=O)c2ccc(NC(C)=O)cc2)c1	4.7%
COc1cccc(NC(=O)CSc2nnc(Cn3c(=O)sc4ccccc43)n2C)c1	-16.6%
Cc1nnc(Sc2nc3c(c(=O)n(C)c(=O)n3C)n2Cc2ccc(Cl)cc2)s1	-23.0%
COc1ccc(C2(O)CN(c3ccc(C)cc3)C3=[N+]2CCCC3)cc1 (centres undefined)	-7.7%
